Screening results: PubChem BioAssay, National Center for Advancing Translational Sciences (NCATS)
TRPML1 inh = blocks the human TRPML1 channel. actives 0.02% (n = 390,000). TRPML1-inducible cells, Ca2+ dye fluorescence, FDSS; active compounds read low; inhibition of EC80 agonist-evoked calcium signal. Q9GZU1. activity change, negative = inhibition, % (test concentration not listed); in the data active means activity change below about -50%; inconclusive means about -30% to -50%; inactive means above about -30%;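 further: stimulus is agonist 54-4 at its EC80 concentration; on the % scale 0 is the no-effect control and ±100 the full control effect; compound concentration not given in the record; the text of the record puts the active cut at -80%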
Target sequence (Q9GZU1 whole entry, looked up): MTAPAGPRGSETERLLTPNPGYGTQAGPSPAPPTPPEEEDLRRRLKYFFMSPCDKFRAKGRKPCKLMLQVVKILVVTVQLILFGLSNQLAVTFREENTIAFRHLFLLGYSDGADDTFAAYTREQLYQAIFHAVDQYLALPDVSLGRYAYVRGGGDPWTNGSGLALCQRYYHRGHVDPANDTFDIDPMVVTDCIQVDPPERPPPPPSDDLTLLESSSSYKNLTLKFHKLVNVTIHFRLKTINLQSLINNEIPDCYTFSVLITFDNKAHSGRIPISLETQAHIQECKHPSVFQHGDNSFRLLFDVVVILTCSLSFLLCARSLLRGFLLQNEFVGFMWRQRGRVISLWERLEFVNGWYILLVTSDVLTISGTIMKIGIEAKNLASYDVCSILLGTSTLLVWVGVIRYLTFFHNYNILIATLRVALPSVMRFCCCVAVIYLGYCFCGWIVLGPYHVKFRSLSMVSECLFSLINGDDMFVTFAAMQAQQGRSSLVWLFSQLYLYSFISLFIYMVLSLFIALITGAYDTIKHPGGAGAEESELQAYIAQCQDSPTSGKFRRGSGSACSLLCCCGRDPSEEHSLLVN
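TRPML1-DL cells, Tet-induced overnight (~16 h, 37 °C) at 1,500 cells/well, were loaded with Ca8 no-wash dye plus quencher for 45-90 min at room temperature. Compounds were pinned during FDSS kinetic reading; agonist 54-4 at EC80 (4 uM final) then added.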
gsp ag = agonists of gsp mutant (McCune-Albright syndrome); Potency, µM (series often up to 76.9 µM), for the others: at the top dose activation (cAMP increase), usual class: activators; actives 0.13% (n = 340,000); AID 624287; gsp mutant cells, cAMP HTRF, 30 min; control for the full effect not named in the record; active = well fitted activation curve with a large enough effect; inconclusive = small, poorly fitted or top-dose-only effect, or another doubt; inactive = no such curve, though single readings can be large or run the other way; cell line not stated here;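 further: phosphodiesterase inhibitor Ro 20-1724 added with compounds to block cAMP breakdown; potency means the concentration at half of the fitted maximal effect; nearly all actives have a fitted effect of over 60% in size; about a fifth of the inactives were tested at one dose only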
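Cells stably selected in G418 were plated at 2000/well, grown 16-24 hr, then given compounds in DMSO with the PDE inhibitor […] (300 uM solution added) for 30 min at 37C; cAMP was read by HTRF.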
Sfp PPTase inh = blocks B. subtilis Sfp PPTase activity; Q9F4F7; Biochemical Sfp PPTase activity, qHTS; Potency, µM, for inactives: max response, negative = inhibition, most hits filed as inhibitors; actives 3.5% (n = 310,000); AID 1490; active means well fitted inhibition curve with a large enough effect; inconclusive means small, poorly fitted or top-dose-only effect, or another doubt; inactive means no such curve, though single readings can be large or run the other way;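 further: the enzyme is Sfp with the accession as filed and its product quenches rhodamine fluorescence; potency means the concentration at half of the fitted maximal effect; 0% = enzyme reaction without inhibitor and -100% = no enzyme wells; top concentration of the series not given in the record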
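Step 1, compound plus 15 nM Sfp-PPTase, 15 min, room temperature. Step 2, add rhodamine-CoA (5 uM) and BHQ-2-YbbR (12.5 uM). Step 3, read 525/598 nm fluorescence at 0 and 30 min.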
gsp antagonist = gsp mutant antagonism; gsp-mutant cells, cAMP HTRF, 30 min; control for the full effect not named in the record; actives 0.4% (n = 340,000); Potency, µM (titrated, usually from 76.9 µM), inactives show at the highest dose activity change, negative = inhibition, usual class: inhibitors; active = falling curve of any shape with a large fitted effect; inconclusive = falling curve, mostly with a smaller effect; inactive = flat or rising curve; cell line not stated here;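 further: intracellular cAMP measured with PDE inhibitor Ro 20-1724 present during compound exposure; potency means the concentration at half of the fitted maximal effect; on the % scale 0 is the no-effect control and ±100 the full control effect; nearly all actives have a fitted effect of over 65% in size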
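Cells in G418 medium, seeded 16-24 h, 37C; buffer exchange to DPBS + 1 mM CaCl2, 0.5 mM MgCl2, 0.05% BSA; cpds in DMSO + […] (300 uM stock), 30 min 37C; HTRF cAMP detection.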
ClpP mod = qHTS Assay for Activators of ClpP. purified B. subtilis ClpP, FRET peptide cleavage, 20 min. actives 1.9% (n = 340,000). AID 651965, 2013. ATP-dependent Clp protease proteolytic subunit (Bacillus subtilis (strain 168)), P80244. Potency, µM (top dose mostly 57.5 µM), without a hit: at the top dose activity change, negative = active; active = well fitted falling curve with a large enough effect; inconclusive = small, poorly fitted or top-dose-only effect; inactive = no such curve, though single readings can be large or run the other way; further: potency means the concentration at half of the fitted maximal effect; the source files actives as falling curves though it sought activators and does not explain the sign; nearly all actives have a fitted effect of over 65% in size; many hits overshoot -100%
Target sequence (P80244 whole entry, looked up): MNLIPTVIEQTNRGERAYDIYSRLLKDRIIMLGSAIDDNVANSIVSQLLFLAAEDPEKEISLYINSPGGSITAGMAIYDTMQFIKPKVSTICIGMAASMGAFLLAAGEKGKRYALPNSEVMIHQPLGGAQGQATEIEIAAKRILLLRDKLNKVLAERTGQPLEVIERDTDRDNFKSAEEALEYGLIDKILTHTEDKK
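ClpP 10 microg/mL final, pH 8 Tris/KCl buffer with BSA, glycerol, Tween-20; compound pinned in; FRET-FV substrate; RT 20 min; Ex320/Em430; ΔFRET vs ADEP 5.8 microM, DMSO, no enzyme.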
Menin MLL FP FL = inhibitors of human menin-MLL interaction, wild-type MLL peptide. Fluorescence polarization, fluorescein-MLL peptide displacement from menin. FP activity change, % at 61.4 µM. 290,000 tested, under 10 active; inconclusive = falling polarisation curve, or a change in total fluorescence; inactive = total fluorescence flat and polarisation flat or rising; no compound was filed as active; the % refers to the polarisation; negative = inhibition;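 further: % of control where 0% means no effect; inhibitors lower the polarisation; unlabelled MLL peptide was the positive control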
TRPV1 PAM = enhances activation of the human vanilloid receptor TRPV1; Q8NER1; TRPV1-expressing cells, Fluo-8 calcium influx, capsaicin EC20 potentiation; host cell line not named in the record; control for the full effect not named in the record; potentiation, % at 8.33 µM; actives 0.02% (n = 320,000); AID 540277; active means potentiation above 80%; inconclusive means 30% to 80%; inactive means below 30%; further: 0% is about no effect
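Cells expressing TRPV1 were dye-loaded with Fluo-8 and read kinetically: 10 s baseline, 3 min after compound (agonist portion), then 2 min after EC20 capsaicin (allosteric enhancer portion). Calcium-bound dye fluorescence at 480/520 nm.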
* hit, by the source's call; ? = inconclusive; · = not tested or not shown; [ ] = another dose, or the depositor's remark.

SMILES	TRPML1 inh	gsp ag	Sfp PPTase inh	gsp antagonist	ClpP mod	Menin MLL FP FL	TRPV1 PAM
O=C(O)CSc1nnc(-c2ccc(Cl)cc2Cl)n1-c1ccc(Br)cc1	-8	-13%	13%	-3%	·	2.7	-4
NS(=O)(=O)c1ccc(CCNC(=O)CSc2nc3ccccc3c(=O)n2CCC(=O)N2CCCCC2)cc1	7	-7%	14%	-6%	0.3%	0.0	10
O=c1c(/C=C(\O)c2ccccc2)nc2ccccc2n1-c1ccccc1	25	17%	3%	0%	4.7%	?	-12
CCC(=O)c1ccccc1OCC(=O)Nc1c(C)cccc1C	-4	0%[15.4 µM]	12%	7%	·	-0.1	-16
COc1ccc(C)cc1NC(=O)NCc1ccccc1F	-1	-4%[15.4 µM]	15%	·	·	1.5	8
CC(=O)Nc1ccc(C(=O)CSc2nc3ccccc3n2CC(=O)N2CCCC2)cc1	12	-17%	?	-14%	-0.3%	1.1	-16
O=C(NCc1ccc(Cl)cc1)C1=Cc2cc(Cl)ccc2OC1	33	-10%	9%	?	1.9%	0.8	-4
COc1ccc(CN2CCSc3sccc3C2=O)cc1	15	1%	-2%	6%	-4.1%	0.0	20
COc1ccc(NC(=O)c2nc[nH]c2C(=O)N[C@@H](C)c2ccccc2)cc1	27	·	-9%	-12%	-1.4%	1.1	-2
Cc1c(N=CC=Nc2c(C)n(C)n(-c3ccccc3)c2=O)c(=O)n(-c2ccccc2)n1C	·	·	5%	·	·	-0.3	-9
CN(Cc1ccccc1)c1ccc(C(CC(N)=O)NC(=O)Cc2ccc(Br)cc2)cc1[N+](=O)[O-] (stereo not drawn)	17	·	-7%	0%	1.1%	2.2	?
O=C(O)c1cc([N+](=O)[O-])c(NCc2cccnc2)c([N+](=O)[O-])c1	-13	-1%	-7%	4%	·	-4.3	4

Whole records from above:
Entry for O=C(O)c1cc([N+](=O)[O-])c(NCc2cccnc2)c([N+](=O)[O-])c1 = TRPML1 inh: -13; gsp ag: -1%; Sfp PPTase inh: -7%; gsp antagonist: 4%; ClpP mod: ·; Menin MLL FP FL: -4.3; TRPV1 PAM: 4
Entry for COc1ccc(NC(=O)c2nc[nH]c2C(=O)N[C@@H](C)c2ccccc2)cc1 = TRPML1 inh: 27; gsp ag: ·; Sfp PPTase inh: -9%; gsp antagonist: -12%; ClpP mod: -1.4%; Menin MLL FP FL: 1.1; TRPV1 PAM: -2

Further compounds:
SMILES	TRPML1 inh	gsp ag	Sfp PPTase inh	gsp antagonist	ClpP mod	Menin MLL FP FL	TRPV1 PAM
CCOC(=O)N1CCN(C(=O)Cn2ncc3ccccc32)CC1	-3	-31%[inhibitor]	8%	1%	-2.0%	1.1	-4
O=C(N/N=C/c1ccncc1)c1nc(-c2ccccc2)n2c1CCCCC2	-1	21%	12%	-17%	-0.8%	4.7	-20
O=C(NNS(=O)(=O)c1ccc([N+](=O)[O-])cc1)c1ccncc1	22	6%	?	9%	·	-2.2	2
O=C(c1ccc([N+](=O)[O-])o1)N1CCN(c2nc3c(F)cc(F)cc3s2)CC1	-15	13%[15.4 µM]	·	?	-1.9%	·	-12
CC(C)(C)CN1C(=O)C(=O)NC[C@@H]1Cc1ccc(O)cc1	-12	·	10%	9%	-1.5%	3.4	13
COc1cc2c(cc1OC)CN(C(=O)C1CCCN1S(=O)(=O)c1ccc(F)cc1)CC2 (stereo not drawn)	-6	5%[15.4 µM]	-97%	-20%	0.6%	·	4
COc1ccc(C(=O)NC(=S)NC(C)c2ccccc2)cc1 (stereo not drawn)	27	-6%[15.4 µM]	·	-12%	·	·	·
O=C(CNC(=O)c1cccs1)N/N=C/c1ccco1	-7	-39%[inhibitor]	-37%	-2%	3.0%	1.6	9
Cc1onc(-c2ccccc2)c1C(=O)N/N=C/c1ccc([N+](=O)[O-])s1	10	-5%	2%	?	-4.1%	3.4	-6
CCn1cc(CN2CCCC(CO)(Cc3ccc(F)cc3)C2)c2ccccc21 (stereo not drawn)	-10	-2%	11%	12%	·	0.1	4
CN1CCN(/N=C/c2ccc(-c3ccc([N+](=O)[O-])cc3)o2)CC1	-4	11%	-12%	-10%	0.9%	?	1
COc1ccc2nc(SCC(=O)Nc3ccc4sc(C)nc4c3)c(C#N)cc2c1	-6	?	-17%	5%	1.6%	1.6	7
CCCCn1c(=O)[nH]c(=O)c2c1nc(-c1ccc(-c3ccccc3Br)o1)n2CCOC	-16	?	40µM*	-4%	32µM*	2.9	7
O=C(O)c1ccc(/C=N/Nc2nc(N3CCCCC3)nc(N3CCCCC3)n2)cc1	-25	0%[15.4 µM]	12%	-15%	·	4.6	-13
CSc1ncccc1C(=O)OCc1ccccc1Cl	39	16%	-2%	-6%	-2.3%	-0.8	-12
CCN1C(=O)[C@H]2[C@@H](c3ccc(C)cc3)N[C@]3(CCCN(Cc4ccco4)C3=O)[C@H]2C1=O	6	-30%[inhibitor]	·	·	-1.5%	·	·
COCC(C)NC(=O)c1ccc(-n2nc(C(F)(F)F)cc2-c2cccs2)cc1 (stereo not drawn)	-4	?	4%	-8%	-3.5%	-2.7	14
COc1ccccc1C(=O)Nc1ccccn1	13	-22%	16%	2%	-2.5%	-0.5	-1
COc1ccc(NC(=S)Nc2ccc(OC)cc2OC)c(OC)c1	1	-8%	?	7%	-0.4%	0.2	9
O=[N+]([O-])c1cccc(-c2nc(NCc3ccccc3)c3ccccc3n2)c1	10	-10%	2%	-21%	-0.5%	-0.7	0
CCN=C1NN=C(c2ccc(C)cc2)CS1	-7	11%	?	-9%	-1.7%	1.6	4
CCCN1C2=NS(=O)(=O)CCN2c2ccccc21	0	-32%[inhibitor]	-10%	5%	1.1%	0.9	-7
CCOC1OC(=O)C(Cl)=C1Nc1ccccc1C (stereo not drawn)	-4	?	-9%	-10%	-0.8%	8.3	7
N#CCn1cc(/C=N/NC(=O)c2cc3c(ccc4ccccc43)o2)c2ccccc21	40	19%	8%	-4%	-7.7%	7.5	-3
CCOC(=O)Cc1nc(-c2ccc(Cl)cc2)n[nH]1	10	-18%[15.4 µM]	20%	13%	·	-6.4	3
O=C(CSc1nnc(NC2CCCCC2)s1)NCc1ccco1	-11	2%[15.4 µM]	-4%	-11%	·	-1.2	0
Cc1[nH]cnc1CSCc1ccc(F)cc1	-22	-10%	0%	8%	-5.6%	-0.5	-9
Cc1ccccc1-c1n[nH]nc1C1=CC(=O)CC(C)(C)C1	1	-20%	·	·	-0.1%	·	·
Cc1cc(C)cc(N(CC(=O)Nc2ccccc2)C2=NC3CS(=O)(=O)CC3S2)c1 (stereo not drawn)	15	3%	12%	-3%	-4.2%	-0.9	4
Cc1nc2ccc(NC(=O)c3oc4ccc(F)cc4c3C)cc2s1	1	-17%	·	2%	3.4%	·	-11
COc1ccccc1N1CCN(CC(=O)NC(=O)NCc2ccccc2)CC1	4	5%	·	·	-1.6%	·	·
Cn1ncc(Br)c1C(=O)N1CCOCC1	27	-27%	13%	9%	-1.2%	4.5	2
O=C1CC(c2cccnc2)c2cc3c(cc2N1)OCO3 (stereo not drawn)	17	1%	12%	8%	-1.1%	2.2	2
Cc1ccc(N(C(=O)CNC(=O)c2ccco2)C(C(=O)NC2CCCC2)c2ccncc2)cc1F (stereo not drawn)	35	19%[15.4 µM]	19%	6%	-3.0%	-0.8	-10
Cc1ccccc1NC(=O)c1cnc2ccccn2c1=O	-1	?	21%	14%	-1.3%	1.1	-10
CCC1(Cc2ccccc2)NC(=O)c2ccccc2O1 (stereo not drawn)	42	-22%	9%	0%	·	-2.3	-7
COc1cc(S(=O)(=O)N(C)C2CCCCC2)c(C)cc1C	-25	-12%	7%	-1%	-0.6%	-6.1	-4
COc1ccc(N2C(=O)C(Cl)=C(N3CCCC3)C2=O)cc1	-7	?	-6%	-5%	-2.3%	1.7	-4
NNC(=O)CCc1nc2ccccc2[nH]1	·	·	12%	·	·	3.5	-5
Cn1c(-n2c(CCN3C(=O)c4ccccc4C3=O)nc3ccccc3c2=O)nc2ccccc21	·	·	-1%	·	·	?	?
O=C(CCN1CCOCC1)Nc1ccc2c(c1)CCC2	5	-5%	-6%	9%	-0.5%	3.3	?
CSc1ccc(S(=O)(=O)NCC(=O)OC(C)C(=O)NCc2ccccc2)cc1[N+](=O)[O-] (stereo not drawn)	5	-4%	·	-17%	1.2%	·	-1
COc1cccc(-c2nn(-c3ccccc3)cc2CN(C)C(C)c2ccon2)c1 (stereo not drawn)	42	17%[15.4 µM]	9%	-73%	·	-1.2	-10
Cc1ccc(C(=O)Nc2cccc(S(=O)(=O)N(C)c3ccccc3)c2)o1	-11	-37%[inhibitor]	·	-13%	?	·	-10
CCOCC(=O)Nc1cccc(C(=O)OCC)c1	-12	-41%	13%	-5%	?	-2.4	2
CCCc1nc(SCC(=O)Nc2cc(Cl)ccc2OC)c2c(=O)n(C)c(=O)n(C)c2n1	·	·	23%	·	·	0.9	3
Cc1ccc(S(=O)(=O)Nc2c(C)n(C)n(-c3ccccc3)c2=O)cc1C(=O)NCc1ccccn1	2	6%	9%	9%	0.4%	-1.8	?
COc1ccc2nc3cccc(OC)c3nc2c1	-27	14%	-85%	-21%	1.7%	-11	1
CSc1nc(O)c(Nc2cccc(Cl)c2)c(=O)[nH]1	14	?	-20%	-10%	3.0%	-0.9	9
COc1ccc(CSc2nnnn2Cc2ccccc2)cc1OC	3	4%	0%	5%	0.3%	0.3	22
CS(=O)(=O)N1CCN(c2ccccc2NC(=O)Cc2ccc(Cl)cc2)CC1	-3	-52%[inhibitor]	3%	2%	-0.4%	0.2	-3
CC(C)c1ccccc1OCC(O)CN1CCN(S(=O)(=O)c2ccc([N+](=O)[O-])cc2)CC1 (stereo not drawn)	1	4%	-22%	-9%	-1.9%	-1.2	1
Cn1c(=O)c2c(ncn2CC(=O)Nc2nc(-c3ccccc3Cl)cs2)n(C)c1=O	-8	28%	16%	13%	-0.5%	-0.6	9
O=C(CSc1ncnc2c1oc1ccccc12)N1CCc2ccccc2C1	·	·	5%	·	·	-1.9	12
CN(CC(=O)Nc1ccc(F)c(F)c1F)C(=O)C1CCCN1C(=O)c1cccs1 (stereo not drawn)	1	-24%	·	·	2.7%	·	·
